GLA inh pH 4.5: alpha-galactosidase A (human) inhibition, pH 4.5. P06280. purified enzyme, 4-MU-alpha-Gal fluorescence, pH 4.5. activity change, negative = inhibition, % at 105 µM. 230,000 tested, under 10 active. AID 1467; inconclusive = small, poorly fitted or top-dose-only inhibition, or a rising curve; inactive = flat fitted curve, though single readings scatter; no compound was filed as active;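 further: 0% = full activity with enzyme and -100% = basal without enzyme; dose as in the result columns while the protocol names 77 µM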
Target sequence (P06280 whole entry, looked up): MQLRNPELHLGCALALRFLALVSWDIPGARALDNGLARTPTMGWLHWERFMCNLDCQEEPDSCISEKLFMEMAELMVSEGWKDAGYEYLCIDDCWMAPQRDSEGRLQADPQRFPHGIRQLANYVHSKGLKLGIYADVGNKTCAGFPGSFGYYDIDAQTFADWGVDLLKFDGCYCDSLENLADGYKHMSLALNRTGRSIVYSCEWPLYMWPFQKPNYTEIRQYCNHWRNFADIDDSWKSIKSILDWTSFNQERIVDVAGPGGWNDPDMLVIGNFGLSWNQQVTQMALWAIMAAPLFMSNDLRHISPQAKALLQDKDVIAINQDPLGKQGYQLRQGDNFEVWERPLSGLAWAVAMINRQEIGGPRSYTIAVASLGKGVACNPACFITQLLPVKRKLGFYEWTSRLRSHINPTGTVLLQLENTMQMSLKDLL
Rango complex inh: Rango-importin beta binding inhibition | Rango CFP/YFP FRET sensor + importin beta, 45 min | Potency, µM (top dose mostly 92.2 µM), for inactives: at the top dose inhibition of complex formation | 0.031% of 340,000 active; active = rising FRET ratio curve, often small or poorly fitted; inconclusive = mostly compound fluorescence or quenching in the first reads; inactive = flat curves in all reads;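 further: potency means the concentration at half of the fitted maximal effect; 0% = DMSO wells and 100% = buffer wells lacking importin beta; nearly all actives have a fitted effect of over 15% in size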
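FRET biosensor Rango (snurportin 1 IBB between N-terminal EYFP and C-terminal Cerulean), 50 nM in PBS/1 mM DTT/0.02% Tween-20/0.1% BSA, preincubated 5 min RT with compound; 0.125 microM importin beta added, 45 min RT, CFP/YFP FRET ratio read.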
miR-21 FLuc: miR-21 reporter, rising signal. HeLa miR-21 FLuc reporter, luciferase, 48 h. 340,000 tested, under 10 active. AID 2288. Potency, µM (titrated, usually from 38.3 µM), without a hit: at the top dose reporter change, positive = more light; active = well fitted rising curve with a large enough effect; inconclusive = small, poorly fitted or top-dose-only effect; inactive = no such curve, though single readings can be large or run the other way;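 further: % of control where 0% means no effect; miR-21 action dims this reporter so a rising signal means less miR-21 action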
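Compounds were titrated across several concentrations (up to approximately 40 uM) and incubated 48 hours with HeLa miR-21-FLuc reporter cells (miR-21 target sequence downstream of FLuc, endogenous miR-21). Readout was firefly luciferase luminescence after lytic detection reagent.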
Rango dissoc inh: inhibition of RanGTP-driven Rango-importin beta dissociation. Potency, µM (titrated, usually from 46.1 µM), inactives show at the highest dose activity change, negative = inhibition. AID 540253. O95149+P62826. 0.071% of 340,000 active. Biochemical FRET Rango-importin beta, RanGTP-induced dissociation; active means falling FRET ratio curve, often poorly fitted, with flat reads before Ran was added; inconclusive means other falling curves, or compound fluorescence or quenching; inactive means flat or rising ratio curve;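 further: potency means the concentration at half of the fitted maximal effect; % of control where 0% means no effect; nearly all actives have a fitted effect of over 45% in size; -100% = wells without RanGTP and RCC1; the record marks most hits as doubtful in a second field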
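Quantitative HTS using a FRET biosensor: 0.1 uM Rango, 0.25 uM importin beta, 0.6 uM Ran, 2 mM GTP, 0.2 uM RCC1 final, PBS with DTT, Tween-20 and BSA. Post-read taken 45 min after Ran addition.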
* marks the source's active call; other numbers are inactive results; ? = inconclusive; nt = no result given; & = joins results of further samples; [ ] = dose if it differs, or a comment. Some of the compounds tested. The share of hits here may be higher or lower than overall.

mol	GLA inh pH 4.5	Rango complex inh	miR-21 FLuc	Rango dissoc inh
Cc1ccc(S(=O)(=O)N2N=C3CCCCC3C2(O)C(F)(F)F)cc1 (stereo not drawn)	-6	-2.6%	-4%	-1%
CN(C)c1oc(-c2ccco2)nc1C#N	0	0.1%	-13%	-8%
CCOc1ccc(CCN2C(=O)c3cccnc3C2=O)cc1OCC	7	-0.7%	0%	-6%
Cc1cc(C(=O)Nc2ccc(S(=O)(=O)Nc3onc(C)c3C)cc2)c(C)o1	-10	-4.3%	-3%	2%
CC(OC(=O)c1cc(=O)[nH]c2ccccc12)C(=O)Nc1ccc(Cl)cn1 (stereo not drawn)	nt	-1.1%	nt	0%
CCN(CC(=O)Nc1ccc(NC(C)=O)cc1)C(=O)C1CCCC1	nt	-1.3%	nt	-2%
CCOC(=O)C1=C(c2ccccc2)NC(=O)NC1c1cc(OC)c(OC)cc1OC (stereo not drawn)	nt	5.2%	-1%	?
O=C(c1ccc(NS(=O)(=O)c2ccccc2)cc1)N1CCOCC1	nt	1.3%	2%	13%
COc1cccc(CC(=O)OCC(=O)N(C)CC(=O)Nc2ccc(F)cc2)c1	nt	3.0%	nt	-5%
CCCCCNC(=O)c1ccc2c(=O)n(CC3CCCO3)c(=S)[nH]c2c1 (stereo not drawn)	7	-4.5%	-1%	2%
O=C(CSCCO)Nc1ccccc1	5	-1.5%	3%	-6%
CC(C)NC(=O)CSc1nc2[nH]ncc2c(=O)[nH]1	8	0.5%	4%	-2%
Cn1c(=O)c2c(nc(N/N=C/c3cccs3)n2Cc2ccc(Br)cc2)n(C)c1=O	-6	-2.0%	-9%	-4%
C[C@H](NC(=O)c1nc[nH]c1C(=O)N1CCNCC1)C(=O)OC(C)(C)C	nt	0.2%	nt	-20%
CCC(C(=O)n1cccc1C#N)c1ccccc1C (stereo not drawn)	nt	1.0%	nt	1%
CCNc1nc2ccccc2[nH]1	5	4.0%	-5%	-10%
COc1cc(C(=O)Oc2ccc3c(c2)OCC3=O)cc(OC)c1OC	-2	0.7%	-4%	-1%
O=Cc1ccc(-c2ccc(Cl)cc2Cl)[nH]1	-10	2.2%	-13%	-1%
CN(C)C(=S)SCC(=O)NCc1ccc(F)cc1	-1	0.2%	-9%	-12%
CCCCc1cc(=O)oc2cc(C)cc(OCC(=O)N3CCC(C(=O)O)CC3)c12	nt	-5.7%	-5%	-5%
CC1=NN(C(=O)c2ccccc2Cl)C(O)(c2ccccc2)C1 (stereo not drawn)	nt	2.0%	-8%	-3%
FC(F)(F)c1cccc(NC(=S)N2CCN(c3ccccc3)CC2)c1	5	2.2%	-14%	-19%
CCC(=O)Nc1ccc(C(=O)N2CCN(C(=O)c3ccco3)CC2)cc1	nt	-0.7%	-1%	8%
CCOc1ccccc1Nc1nnc(SCC(=O)Nc2nc(-c3ccc(OC)cc3)cs2)s1	5	1.5%	-11%	8%
CC(C)CCNC(=O)CCS(=O)(=O)c1cccc2nonc12	0	0.3%	-5%	-5%
O=S(=O)(NCCSc1ccccc1)c1ccc(F)cc1	-5	-0.3%	-6%	-1%
Cc1ccc(S(=O)(=O)N2CCC(C(=O)Nc3ccccc3N3CCCCC3)CC2)cc1C	nt	1.0%	nt	-2%
O=C(C1CCCN(S(=O)(=O)c2ccc(F)cc2)C1)N1CCCCCC1 (stereo not drawn)	nt	-3.5%	8%	-3%
O=CNC(=O)c1ccccc1C(=O)O	-10	-0.2%	-4%	0%
O=S(=O)(CC(CN1CCOCC1)N1CCOCC1)c1ccccc1 (stereo not drawn)	2[21.1 µM]	0.5%	0%	0%

Retrieved by structure from the entries so far (3):
mol	GLA inh pH 4.5	Rango complex inh	miR-21 FLuc	Rango dissoc inh
CC(C)CCNC(=O)CCS(=O)(=O)c1cccc2nonc12	0	0.3%	-5%	-5%
CCN(CC(=O)Nc1ccc(NC(C)=O)cc1)C(=O)C1CCCC1	nt	-1.3%	nt	-2%
Cn1c(=O)c2c(nc(N/N=C/c3cccs3)n2Cc2ccc(Br)cc2)n(C)c1=O	-6	-2.0%	-9%	-4%

Next part:
mol	GLA inh pH 4.5	Rango complex inh	miR-21 FLuc	Rango dissoc inh
O=C(Nc1cccc(F)c1)Nc1ccnn1C1CCN(C(=O)c2ccccn2)CC1	nt	0.4%	-22%	-3%
COc1ccc(Cl)cc1NC(=O)c1nnn(CC(=O)Nc2ccc(C)c(C)c2)c1N	nt	-1.0%	-2%	9%
O=C1NC[C@H](CC2CCCCC2)N(CCc2cccc(F)c2)C1=O	nt	-0.5%	nt	1%
COc1cccc(CN(C)CC(=O)Nc2ccccc2C(=O)NC2CC2)c1	nt	-0.2%	nt	0%
O=C(COc1ccc(Cl)cc1)NCc1nnc(SCC(=O)NC2CCCC2)o1	6	0.0%	-3%	-7%
C#CCOCCOCCOCCNc1nc(N2CCN(C(=O)[C@H](CCC(=O)O)n3cc(C(N)CC(C)C)nn3)CC2)nc(N2CCN(C(=O)[C@H](Cc3cc4ccccc4[nH]3)n3cc(C(N)CC(C)C)nn3)CC2)n1 (stereo partly drawn)	3	?	2%	-7%
O=C(CCc1ccccc1)N1N=C(c2ccncc2)CC1(O)C(F)(F)F (stereo not drawn)	8	-2.2%	-2%	12%
Cc1cccc(C2NC(c3cccc(C)c3)C([N+](=O)[O-])C(C)(C)C2[N+](=O)[O-])c1 (stereo not drawn)	-11	-1.4%	-4%	15%
CN(C)CCn1c(=S)[nH]c2ccccc2c1=O	0	3.2%	1%	3%
COc1ccccc1CNC(=O)c1c(-c2ccccc2Cl)noc1C	nt	-1.1%	-5%	4%
CCCc1c(OCCCCc2nn[nH]n2)ccc(C(C)=O)c1O	-24&-14&0&-6	-4.2%	-19%&-14%	12%
Cc1nc(N)sc1C(=O)N/N=C/c1cccnc1	-9	0.6%	6%	2%
CCOP(=O)(OCC)C(Nc1cccc([N+](=O)[O-])c1)c1ccc(N(C)C)cc1 (stereo not drawn)	-3	0.0%	2%	0%
O=C(O)c1ccc(-n2nnnc2Oc2cccc3cccnc23)cc1	4	-5.3%	0%	-18%
COC(=O)C1=C(C)N(c2ccc(Cl)cc2)/C(=C/c2ccc(O)cc2)C1=O	8	0.4%	0%	-7%
O=C(CSc1nnc(-c2ccccc2Cl)o1)N1CCCCC1	6	-2.7%	-17%	27%
CCN(c1ccc(OC)cc1)S(=O)(=O)N1CCCC(C(=O)NCc2ccccc2Br)C1 (stereo not drawn)	nt	3.5%	13%	3%
Cc1ccc(S(=O)(=O)N2CCN(C(=O)c3cc4c(s3)CCCC4)CC2)cc1	nt	-1.5%	nt	-12%
O=C(c1ccc(Cl)cc1)N1CCC(c2nc(-c3cccs3)no2)CC1	-4	2.3%	11%	-13%
Nc1ccc(C(=O)N/N=C\c2cc(N=Nc3cccc4ccccc34)ccc2O)cc1	1	0.8%	2%	-8%
O=C(O)CCSc1nnc(COc2ccc(Cl)cc2)n1-c1ccccc1	nt	1.4%	-1%	-4%
CN1CCN(C2=CC3=CC(=C(C#N)C#N)CCC3CC2)CC1 (stereo not drawn)	-10	?	7%	?
CN(CC(=O)Nc1ccccc1Cl)C(=O)c1cccc(-n2cccc2)c1	nt	-1.5%	nt	6%
COc1ccc(OCC(O)CN2C(=O)c3ccccc3C2=O)cc1 (stereo not drawn)	nt	3.3%	-5%	1%
Cc1ccccc1NC(=O)Cc1nc(COC(=O)c2cccc(C)c2O)cs1	nt	2.5%	-7%	-3%
CC1CCCCN1Cc1ccc(N(C)C)cc1 (stereo not drawn)	3	-0.1%	0%	12%
Cc1cccc(OCCCC(=O)Nc2ccccc2C(F)(F)F)c1	3	-2.9%	-5%	-3%
COc1ccc(CCN(Cc2nc3ccccc3c(=O)[nH]2)C(=O)c2ccco2)cc1OC	0	4.8%	-8%	0%
COc1cccc(COC(=O)C2CCN(C(=O)c3ccccc3C)CC2)c1OC	nt	-3.0%	0%	11%
CCCN1CCN(C(=O)c2oc3ccccc3c2NC(=O)C2CC2)CC1	nt	0.4%	1%	2%

3 entries already listed, sorted by formula weight, smallest number first:
mol	GLA inh pH 4.5	Rango complex inh	miR-21 FLuc	Rango dissoc inh
Cc1nc(N)sc1C(=O)N/N=C/c1cccnc1	-9	0.6%	6%	2%
O=C(Nc1cccc(F)c1)Nc1ccnn1C1CCN(C(=O)c2ccccn2)CC1	nt	0.4%	-22%	-3%
CCN(c1ccc(OC)cc1)S(=O)(=O)N1CCCC(C(=O)NCc2ccccc2Br)C1 (stereo not drawn)	nt	3.5%	13%	3%

(continued)
mol	GLA inh pH 4.5	Rango complex inh	miR-21 FLuc	Rango dissoc inh
Cc1cc(C)c(C#N)c(SCc2[nH]nc3c2C(c2ccccc2)C(C#N)=C(N)O3)n1 (stereo not drawn)	9	-1.3%	-11%	-10%
Cc1ccc(NC(=O)CNCc2ccccc2)c(Br)c1	-2	3.1%	-58%	8%
Cc1cc(C(=O)NCc2cc(C(=O)O)oc2C)c(C)o1	-9	-3.9%	-7%	-5%
O=S(=O)(Nc1cccc2ccccc12)N1CCCC1	-4	0.8%	-11%	-12%
COC(=O)C1=C(C)N(c2ccc(F)cc2)C(=O)C1	4	-2.3%	-6%	11%
CCN(CC)C(=O)COc1coc(CN2CCN(c3cccc(Cl)c3)CC2)cc1=O	nt	-0.1%	1%	1%
COc1ccc(N2CCN(Cc3csc(C)c3-c3ccc(C)cc3)CC2)cc1	nt	?	-1%	18%
COc1ccc(CCNC(=O)CN2c3cccc4cccc(c34)S2(=O)=O)cc1OC	nt	0.2%	-9%	?
CCOc1ccccc1CNC(=O)Cn1ccc2cc(S(=O)(=O)N3CCCC3)ccc21	nt	?	9%	-1%
O=C(COC(=O)C1CC2C=CC1C2)Nc1c(Br)cc([N+](=O)[O-])cc1Br (stereo not drawn)	nt	-0.7%	nt	7%
CC[C@@H](C)[C@H](NC(=O)Cc1c(C)c2c(cc(C)c3c(C)c(C)oc32)oc1=O)C(=O)O	nt	-0.8%	2%	2%
CSc1cccc(NC(=S)NN(C)C)c1	-5	0.2%	-31%	26%
O=C(NC1CCCC1)C(c1ccncc1)N(C(=O)Cn1nnc(-c2ccccc2F)n1)c1cccc(F)c1 (stereo not drawn)	nt	2.2%	1%	1%
CCC(C)Nc1nc(-c2ccc3c(c2)NC(=O)CO3)cs1 (stereo not drawn)	-9	0.1%	-32%	-5%
CC(=O)c1ccc(Nc2c3c(c(C#N)c4nc5ccccc5n24)CCC3)cc1	1	nt	-14%	nt
Fc1c(F)c(F)c(N=Cc2ccc3ncccc3c2)c(F)c1F	-2	4.7%	1%	18%
CC12CCC(=O)N1C(C(=O)N1CCN(S(=O)(=O)c3cccc(C(F)(F)F)c3)CC1)CS2 (stereo not drawn)	nt	-4.2%	nt	-12%
N#CC1=C(S)N(c2ccc(F)cc2)C(c2cccs2)NC1=O (stereo not drawn)	-6	-1.1%	3%	1%
CC(C)N(Cc1ccccc1)CC(O)COc1ccc(S(=O)(=O)N2CCOCC2)cc1Cl (stereo not drawn)	-5	-0.5%	-1%	10%
CC(C)NC(=O)COc1ccccc1C#N	4	?	-2%	12%
Cc1noc(N)c1C(=O)Nc1ccc(F)c(Cl)c1	0	-7.0%	-15%	-7%
CCOc1ccc(/C=C(\C#N)C(=O)NC2CC2)c(OCC)c1	nt	?	nt	-5%
O=S(=O)(Nc1ccc(Br)cn1)c1ccc2ccccc2c1	nt	2.7%	-2%	7%
Cc1cc(C(=O)NNC(=O)Cc2ccc(Cl)c(Cl)c2)c(C)o1	nt	1.7%	nt	-7%
O=C(Cc1ccccc1)NCC(=O)OCC(=O)c1ccccc1Cl	4	1.5%	-1%	-28%
